# DUX4 txn inh: blocks DUX4-driven transcriptional activation; 293T-iDUX4 ZSCAN4-Gaussia luciferase reporter, 24 h; active compounds read low; activity change, negative = inhibition, % (concentration not given with the values); actives 0.8% (n = 37,000); AID 1224904;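 active = -10% or lower and over 25 points stronger than a control reporter; inconclusive = -10% or lower with a smaller gap; inactive = above -10%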;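 also: 0% = median of neutral control wells and -100% = median of positive control wells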
# DUX4 txn inh difference: further read-out of DUX4 txn inh, marked with its call; Gaussia minus Italica difference, %; measured here: selective DUX4 reporter inhibition;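 worked out from the two reporters; negative = selective loss of the DUX4 reporter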
# DUX4 txn inh control: second read-out of DUX4 txn inh, no call of its own (marks repeat the call); activity change, negative = inhibition, %; measured here: Italica tet-on control reporter;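 0 = neutral control and -100 = positive control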
# Active calls of the source: *; u = inconclusive; x = not tested or not shown. An excerpt; count on the stated rates, not on these rows.
Compound	DUX4 txn inh	DUX4 txn inh difference	DUX4 txn inh control
O=C(C[C@H]1CC[C@H]2[C@@H](COC[C@@H](O)CN2Cc2cccc(F)c2)O1)NCCc1ccncc1	8	5	2.5
CC=Cc1ccc2n(c1=O)C[C@H]1[C@H](CO)[C@@H](C(=O)N(C)C)N(CC3CCOCC3)[C@@H]21 (mixture of isomers)	3	1	1.4
O=C(NCC1CC1)[C@@H]1[C@@H](CO)[C@@H]2Cn3c(ccc(-c4ccccc4F)c3=O)[C@H]1N2Cc1ccncc1	4	1	3.7
Cc1ccccc1S(=O)(=O)N1C[C@H](O)COC[C@H]2O[C@H](CC(=O)NCc3ccccc3Cl)CC[C@@H]21	u	x	x
C[C@H]1CN([C@@H](C)CO)S(=O)(=O)c2ccc(C#CCN(C)C)cc2O[C@H]1CN(C)S(C)(=O)=O	-1	-3	2.3
CC=Cc1ccc2n(c1=O)C[C@@H]1[C@@H](CO)[C@H](C(=O)NCCc3ccccc3)[C@H]2N1C (mixture of isomers)	1	-2	2.6
COc1ccc2c3c([nH]c2c1)[C@@H](CO)N(CC1CC1)CC31CCN(C(=O)NC2CCCC2)CC1	-2	2	-4.3
Cc1ccc(S(=O)(=O)N2C[C@H](O)COC[C@H]3O[C@@H](CC(=O)N[C@H]4CCN(Cc5ccccc5)C4)CC[C@@H]32)cc1	7	6	1.5
C/C=C/c1ccc(C2[C@H]3CNC[C@@H]2N3S(=O)(=O)c2ccc(Cl)cc2)cc1 (some centres not stated)	18	11	7.3
COc1ccc2c3c([nH]c2c1)[C@@H](CO)N(C(=O)CC1CC1)CC31CN(Cc2ccncc2)C1	14	7	6.7
CC(=O)N1[C@H](CO)[C@H](c2ccccc2)[C@@H]1CN(C(=O)c1ccccc1F)C(C)C	-1	2	-3.0
COc1cccc(S(=O)(=O)N2CCCCN3[C@@H](CO)[C@@H](c4ccc(C5=CCCCC5)cc4)[C@@H]3C2)c1	-1	4	-5.4
COc1ccc2c3c(n(C)c2c1)[C@@H](CO)N(CC1CCOCC1)CC31CN(Cc2nccs2)C1	6	2	4.1
COc1cccc(S(=O)(=O)Nc2ccc3c(c2)[C@H]2C[C@@H](CC(=O)NC4CCCCC4)O[C@@H](CO)[C@H]2O3)c1	5	5	0.2
O=C(Nc1cc(F)ccc1F)N1CC(=O)N2[C@H](CO)[C@@H](c3ccc(C#CC4CCCCC4)cc3)[C@H]2C1	2	-5	7.4
COc1cccc(S(=O)(=O)Nc2ccc3c(c2)C(=O)N(C)[C@@H]2CC[C@H](CC(=O)O)O[C@@H]2CO3)c1	0	-1	0.7
CN1CCN(C(=O)C[C@H]2CC[C@@H]3[C@H](COc4ccc(NC(=O)C5CCOCC5)cc4C(=O)N3C)O2)CC1	-2	-4	2.0
COc1ccccc1NC(=O)N1C[C@@H](C)[C@H](OC)CN(C)C(=O)c2cc(NC(=O)c3cnccn3)ccc2OC[C@H]1C	2	1	0.3
C[C@H](O)C#Cc1cnc2c(c1)C(=O)N([C@H](C)CO)C[C@@H](C)[C@@H](CN(C)Cc1cncnc1)O2	3	0	2.9
CCC(=O)N1[C@H](C#N)[C@@H](c2ccccc2-c2ccccc2)[C@@H]1CO	17	12	5.0

# Entries from the list above with a Cl atom, in the order listed:
Compound	DUX4 txn inh	DUX4 txn inh difference	DUX4 txn inh control
Cc1ccccc1S(=O)(=O)N1C[C@H](O)COC[C@H]2O[C@H](CC(=O)NCc3ccccc3Cl)CC[C@@H]21	u	x	x
C/C=C/c1ccc(C2[C@H]3CNC[C@@H]2N3S(=O)(=O)c2ccc(Cl)cc2)cc1 (some centres not stated)	18	11	7.3

# A second format for 4 compounds above.
> COc1cccc(S(=O)(=O)Nc2ccc3c(c2)[C@H]2C[C@@H](CC(=O)NC4CCCCC4)O[C@@H](CO)[C@H]2O3)c1
  DUX4 txn inh: 5	DUX4 txn inh difference: 5	DUX4 txn inh control: 0.2

> COc1ccccc1NC(=O)N1C[C@@H](C)[C@H](OC)CN(C)C(=O)c2cc(NC(=O)c3cnccn3)ccc2OC[C@H]1C
  DUX4 txn inh: 2	DUX4 txn inh difference: 1	DUX4 txn inh control: 0.3

> CN1CCN(C(=O)C[C@H]2CC[C@@H]3[C@H](COc4ccc(NC(=O)C5CCOCC5)cc4C(=O)N3C)O2)CC1
  DUX4 txn inh: -2	DUX4 txn inh difference: -4	DUX4 txn inh control: 2.0

> CC(=O)N1[C@H](CO)[C@H](c2ccccc2)[C@@H]1CN(C(=O)c1ccccc1F)C(C)C
  DUX4 txn inh: -1	DUX4 txn inh difference: 2	DUX4 txn inh control: -3.0

# (more compounds)
Compound	DUX4 txn inh	DUX4 txn inh difference	DUX4 txn inh control
CS(=O)(=O)Nc1ccc2c(c1)[C@H]1C[C@H](CC(=O)NCc3ccc(Oc4ccccc4)cc3)O[C@@H](CO)[C@H]1O2	4	-1	4.9
Cc1noc(C)c1NC(=O)N(C)C[C@@H]1OCCCC[C@@H](C)Oc2ccc(NC(=O)Nc3ccc(C(F)(F)F)cc3)cc2C(=O)N([C@H](C)CO)C[C@@H]1C	-4	-2	-2.0
C[C@H](CO)N1C[C@H](C)[C@H](CN(C)C(=O)CN2CCOCC2)Oc2ncc(C#C[C@@H](C)O)cc2C1=O	4	-2	6.1
CCCN(C)C[C@@H]1Oc2cc(-c3ccc(F)cc3)ccc2S(=O)(=O)N([C@H](C)CO)C[C@@H]1C	1	-1	2.3
Cc1noc(C)c1S(=O)(=O)N(C)C[C@@H]1OCCCC[C@@H](C)Oc2ccc(NC(=O)c3ccccc3)cc2C(=O)N([C@@H](C)CO)C[C@@H]1C	2	2	-0.3
COCC(=O)Nc1ccc2c(c1)C(=O)N(C)C[C@H](OC)[C@@H](C)CN(CCc1ccccc1)[C@@H](C)CO2	-5	-7	1.6
O=C(Cc1cccnc1)N1CC2(C1)[C@H](c1ccccc1)[C@@H](CO)N2C(=O)C1CCCCC1	1	-1	1.6
C[C@H]1CN([C@@H](C)CO)S(=O)(=O)c2ccc(Br)cc2O[C@H]1CN(C)Cc1cncnc1	1	-2	3.1
COc1ccc2c3c([nH]c2c1)[C@H](CO)N(C(=O)c1ccc(F)cc1)CC31CCN(S(=O)(=O)c2cccs2)CC1	2	-6	8.3
COc1ccc2c3c([nH]c2c1)[C@@H](CO)N(C)CC31CCN(S(=O)(=O)c2cccc(F)c2)CC1	u	x	x
COc1cccc(-c2ccc([C@@H]3[C@H](CO)N4CCCCN(CC5CC5)C[C@@H]34)cc2)c1	-3	-2	-1.3
O=C(c1ccccc1)N1C[C@H]2[C@@H](c3ccccc31)[C@H](CO)N2Cc1ccccc1F	-2	-1	-0.6
CCCN1[C@@H]2Cn3c(ccc(-c4ccc(OC)cc4)c3=O)[C@H]1[C@@H](C(=O)NCC)[C@@H]2CO	1	2	-0.9
CCCNC(=O)C[C@H]1CC[C@@H]2[C@@H](COc3ccc(NC(=O)Cc4cccs4)cc3C(=O)N2C)O1	-5	-2	-2.4
CNC[C@@H]1Oc2c(NC(=O)c3ccc(-c4nccs4)cc3)cccc2C(=O)N([C@H](C)CO)C[C@H]1C	0	4	-4.0
CN(C)C(=O)C[C@@H]1CC[C@H]2[C@H](COc3ccc(NS(=O)(=O)c4cccc(F)c4)cc3C(=O)N2C)O1	-1	-3	2.6
CO[C@H]1CN(C)C(=O)c2cc(NS(=O)(=O)c3ccccc3)ccc2OC[C@@H](C)N(Cc2cccnc2)C[C@H]1C	0	-6	5.6
CCC(=O)N1C[C@@H]2[C@H](c3ccccc31)[C@@H](CO)N2Cc1ccccc1F	-4	-1	-3.6
CCC(=O)NC[C@@H]1N[C@@H](CO)[C@H]1c1ccc(C2=CCCC2)cc1	-3	-2	-0.9
COCCNC(=O)[C@@H]1[C@@H](CO)[C@@H]2Cn3c(ccc(-c4ccccc4F)c3=O)[C@H]1N2S(C)(=O)=O	-6	-7	1.5
O=C(NC1CCCCC1)N1CC(=O)N2[C@H](CO)[C@@H](c3ccc(-c4ccncc4)cc3)[C@H]2C1	16	8	7.8
O=C(C1CCCCC1)N1C[C@H]2[C@@H](c3ccccc31)[C@H](CO)N2C(=O)c1ccccc1F	-5	-4	-1.4
O=C1CN(S(=O)(=O)c2ccccc2)C[C@@H]2[C@H](c3ccc(Br)cc3)[C@@H](CO)N12	5	-10	15
CN1C(=O)c2cc(NC(=O)NCc3ccccc3)ccc2OC[C@H]2O[C@H](CC(=O)NCC3CCCCC3)CC[C@@H]21	2	-2	4.2
COc1cccc(C#Cc2ccc([C@H]3[C@H](CO)N4C(=O)CN(C(=O)Cc5cccnc5)C[C@@H]34)cc2)c1	15	12	3.1
O=C(C[C@@H]1CC[C@H]2[C@@H](COC[C@H](O)CN2Cc2cc(F)cc(F)c2)O1)NC1CCCC1	0	1	-1.3
O=S(=O)(Cc1ccccc1)N1CCCCN2[C@@H](CO)[C@H](c3ccc(-c4cccnc4)cc3)[C@@H]2C1	15	16	-0.6
COCCNC(=O)C[C@H]1C[C@H]2c3cc(NC(=O)CC4CC4)ccc3O[C@H]2[C@@H](CO)O1	6	7	-0.5
O=C(C1CCCCC1)N1CC(=O)N2[C@H](C1)[C@H](c1ccc(-c3ccccc3F)cc1)[C@@H]2CO	10	6	4.6
O=C(NCCCN1CCOCC1)[C@H]1N[C@H]2c3ccc(C4=CCCCC4)c(=O)n3C[C@H]2[C@@H]1CO	6	6	0.0

# More compounds
# Below each compound: DUX4 txn inh | DUX4 txn inh difference | DUX4 txn inh control
CNC(=O)C[C@H]1CC[C@H]2[C@@H](COC[C@H](O)CN2S(=O)(=O)c2ccc(Oc3ccccc3)cc2)O1
    11 | 7 | 3.3
O=C(O)C[C@H]1C[C@@H]2c3cc(NC(=O)CC4CC4)ccc3O[C@@H]2[C@@H](CO)O1
    4 | -4 | 8.3
CN1C(=O)c2cc(NC(=O)c3cccc(C(F)(F)F)c3)ccc2OC[C@H]2O[C@@H](CC(=O)O)CC[C@H]21
    5 | 0 | 5.2
COc1ccc(S(=O)(=O)N2C[C@H](O)COC[C@H]3O[C@H](CC(=O)N(C)C)CC[C@@H]32)cc1
    9 | 9 | -0.8
COCC(=O)Nc1ccc2c(c1)OC[C@@H](C)N(Cc1ccncc1)C[C@H](C)[C@@H](OC)CN(C)C2=O
    -6 | -6 | 0.5
CCN(C[C@@H]1[C@@H](c2ccccc2)[C@H](CO)N1C(C)=O)C(=O)NC1CCCC1
    1 | 0 | 0.8
CNC(=O)C[C@H]1CC[C@H]2[C@@H](COC[C@H](O)CN2Cc2ccc(C(F)(F)F)cc2)O1
    6 | 2 | 3.9
CN1CCN(C(=O)[C@@H]2[C@@H](CO)[C@@H]3Cn4c(cccc4=O)[C@H]2N3Cc2ccncc2)CC1
    -5 | -4 | -1.0
CCCNC(=O)N1[C@@H](C#N)[C@@H](c2ccc(-c3cccnc3)cc2)[C@@H]1CO
    -2 | -3 | 0.2
CN(C)C(=O)c1cccc(-c2ccc3c(c2)[C@H]2[C@H](CCN2C(=O)c2ccc4c(c2)OCO4)[C@H](CO)N3)c1
    u | x | x
O=C1C[C@H](c2ccccc2)C(=O)N[C@@H](c2ccccc2)C/C=C\C[C@H](c2ccccc2)N1
    1 | -4 | 4.5
O=C(O)C[C@@H]1C[C@H]2c3cc(NC(=O)C4CCC4)ccc3O[C@H]2[C@@H](CO)O1
    3 | -11 | 14
CC(C)NC(=O)Nc1ccc2c(c1)C(=O)N([C@H](C)CO)C[C@H](C)[C@H](CN(C)S(=O)(=O)c1ccc(F)cc1)OCCCC[C@H](C)O2
    2 | 4 | -2.2
COc1ccc(NC(=O)Nc2ccc3c(c2)C(=O)N([C@H](C)CO)C[C@@H](C)[C@H](CN(C)C(=O)NC2CCCCC2)OCCCC[C@H](C)O3)cc1
    1 | -1 | 1.3
N#C[C@@H]1[C@H](c2ccccc2C2=CCCC2)[C@@H](CO)N1C(=O)Cc1ccncc1
    u | x | x
CO[C@H](CN(C)Cc1cc(F)ccc1F)[C@H](C)CN([C@H](C)CO)S(=O)(=O)c1ccc(Cl)cc1
    5 | 0 | 4.8
CO[C@H]1CN(C)C(=O)c2cccc(C#N)c2OCC[C@H]2CC[C@@H](OC)[C@H](CN(C)C(=O)[C@H]1C)O2
    2 | 0 | 1.5
CO[C@H]1CN(C)C(=O)c2cc(NC(=O)c3cc(C)on3)ccc2OC[C@H](C)N(C)C[C@H]1C
    -1 | 1 | -2.5
O=C(C[C@H]1CC[C@H]2[C@@H](COC[C@H](O)CN2C(=O)Nc2ccccc2)O1)NC1Cc2ccccc2C1
    -5 | 3 | -7.4
C[C@@H]1CN([C@H](C)CO)C(=O)CCCn2nncc2CO[C@@H]1CN(C)C(=O)Nc1ccc2c(c1)OCCO2
    2 | 7 | -5.1
CN(C)CCCNC(=O)C[C@@H]1CC[C@@H]2[C@H](COC[C@@H](O)CN2S(=O)(=O)c2ccc(F)cc2)O1
    14 | 6 | 8.3
Cc1noc(C)c1S(=O)(=O)Nc1ccc2c(c1)C(=O)N([C@H](C)CO)C[C@@H](C)[C@@H](CN(C)Cc1ccc(C(=O)O)cc1)OCCCC[C@@H](C)O2
    -2 | -1 | -0.5
O=C([C@@H]1[C@@H](CO)[C@@H]2Cn3c(ccc(-c4ccncc4)c3=O)[C@H]1N2CCC(F)(F)F)N1CCCCC1
    0 | -1 | 1.2
C[C@@H]1CN([C@H](C)CO)C(=O)c2ccccc2-c2ccccc2CO[C@@H]1CN(C)C(=O)[C@H]1CCCN1C
    10 | 3 | 7.4
CCC(=O)Nc1ccc2c(c1)OC[C@@H](C)N(CC1CC1)C[C@H](C)[C@@H](OC)CN(C)C2=O
    0 | -6 | 5.9
COc1ccc(-c2ccc([C@@H]3[C@H](CO)N4C(=O)CN(C(=O)c5ccccc5)C[C@@H]34)cc2)cc1
    u | x | x

# Bioassay records (PubChem BioAssay)
